# HSF1 activator: increases HSF-1 driven luciferase reporter signal. NIH3T3-HGL HSF-1 luciferase reporter, MG132, 8 h; 100% = twice DMSO control signal. activation, % at 9 µM. actives 1.7% (n = 300,000);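 active = mean replicate activation of at least 50% with a set share of replicates each reaching 50%; inconclusive = only one of those two conditions met; inactive = mean below 50% and too few replicates reaching it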;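 also: 0% = median of the neutral control wells and 100% = twice that signal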
# HSP90 inh: blocks HSP90-mediated luciferase refolding in reticulocyte lysate; Rabbit reticulocyte lysate, luciferase refolding luminescence, 3 h; inhibition, % at 5.6 µM; actives 0.91% (n = 290,000);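 active = inhibition above the screen-wide mean plus 3 SD, computed separately per campaign, cut at about 16% in these data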;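 also: 0% = DMSO wells and 100% = 60 µM geldanamycin wells; inhibitors lower the luminescence because luciferase stays unfolded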
# aSyn UTR inh: MLPCN primary screen, SNCA 5' untranslated region; inhibition, % (tested at 7.5 µM); AID 1813; alpha-synuclein 5'UTR reporter, inhibitor activity; actives 0.82% (n = 300,000); in the data active = inhibition above about 60%; inconclusive = no clear call, values can overlap the other calls;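 also: H4 neuroglioblastoma cells stably carrying SNCA 5'UTR luciferase fusion; 0% = DMSO wells and 100% = positive control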
# KLF5 inhibitor: kruppel-like factor 5 inhibition. DLD-1 KLF5 promoter-luciferase reporter, luminescence. inhibition, % at 5 µM. actives 0.23% (n = 290,000). AID 1700;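 active = inhibition above a per-plate limit of that plate's mean compound inhibition plus 3 SD, cut at about 60% in these data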;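 also: 0% = DMSO wells and 100% = LY294002 at 200 µM; higher means less KLF5 promoter-driven luciferase light; inactives centre near -14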
# GSK3A inh: blocks human GSK-3 alpha kinase | P49840 | ADP-Glo luminescence, 60 min | inhibition, % at 10 µM | actives 0.1% (n = 320,000);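 in the data active = inhibition above about 50%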;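 also: GST-tagged GSK-3 alpha with peptide substrate and 25 µM ATP; 0% = DMSO neutral wells and 100% = GW8510 positive control wells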
# Target sequence (P49840 whole entry, looked up): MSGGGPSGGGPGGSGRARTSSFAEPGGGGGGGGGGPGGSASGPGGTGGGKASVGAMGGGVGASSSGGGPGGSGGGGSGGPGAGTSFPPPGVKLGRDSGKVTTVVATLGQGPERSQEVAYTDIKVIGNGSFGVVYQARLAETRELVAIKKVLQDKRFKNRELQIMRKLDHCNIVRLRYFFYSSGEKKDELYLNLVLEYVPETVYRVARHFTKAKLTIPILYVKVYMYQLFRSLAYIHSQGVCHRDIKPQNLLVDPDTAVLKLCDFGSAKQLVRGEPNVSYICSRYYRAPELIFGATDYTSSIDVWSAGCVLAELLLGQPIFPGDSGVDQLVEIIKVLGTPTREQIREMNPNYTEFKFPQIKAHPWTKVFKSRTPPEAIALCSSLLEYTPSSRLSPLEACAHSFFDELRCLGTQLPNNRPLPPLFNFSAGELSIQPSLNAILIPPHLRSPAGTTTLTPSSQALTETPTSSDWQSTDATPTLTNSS
# HSF1 inh: HSF1 inhibition; actives 0.77% (n = 300,000); NIH3T3-HGL HSE-luciferase, MG132-induced, luminescence 8 h; stronger effect = lower value; activity change, negative = inhibition, % at 7.5 µM (by protocol);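 active = more than half of replicate wells show activity change below -50%, luminescence cut by over half; inconclusive = some wells, but at most half, below -50%; inactive = no replicate well below -50%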;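 also: luciferase reports HSF-1 transcriptional activity via heat shock element; 0% = median of DMSO wells and -100% = zero luminescence signal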
# GSK3B inh: inhibitors of human GSK3beta kinase. actives 0.038% (n = 300,000). GST-GSK3beta kinase, ADP-Glo luminescence, 60 min; stronger effect = lower value. AID 2097. activity score (negative = inhibition), % at 10 µM;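 active = more than half of replicate wells score below -50%, meaning over 50% inhibition versus plate controls; inconclusive = some replicates but at most half score below -50%; inactive = no replicate scores below -50%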;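 also: 0% = median DMSO wells and -100% = median GW8510 positive control wells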
# Target sequence (P49841 whole entry, looked up): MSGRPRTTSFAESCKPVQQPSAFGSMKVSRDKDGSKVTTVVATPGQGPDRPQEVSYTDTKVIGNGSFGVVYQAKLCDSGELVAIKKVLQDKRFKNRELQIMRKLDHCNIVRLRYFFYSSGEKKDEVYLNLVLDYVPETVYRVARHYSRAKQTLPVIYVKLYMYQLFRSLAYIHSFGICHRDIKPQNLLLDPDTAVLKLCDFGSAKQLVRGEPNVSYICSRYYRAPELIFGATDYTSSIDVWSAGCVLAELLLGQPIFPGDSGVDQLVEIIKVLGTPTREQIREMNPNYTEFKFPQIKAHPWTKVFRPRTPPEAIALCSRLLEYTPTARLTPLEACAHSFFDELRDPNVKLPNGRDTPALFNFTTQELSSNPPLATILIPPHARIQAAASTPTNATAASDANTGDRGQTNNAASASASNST
#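 Test system – GST-tagged human GSK3beta kinase, cell-free · Incubation – 60 min enzyme reaction, room temperature · Signal – ADP-Glo luminescence · Also added – peptide substrate and ATP at 25 µM · Controls – DMSO neutral wells and GW8510 at 20 µM as positive · Buffer or medium – Tris/MgCl2 kinase buffer · Measure – Luminescence-derived activity versus plate DMSO and GW8510 wells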
# IEC-6 cytotox: counter-screen for KLF5 inhibitors: cytotoxicity in IEC-6 cells; IEC-6 cytotoxicity, luminescence viability; actives 0.78% (n = 290,000); AID 1825; inhibition, % at 5 µM; in the data active = inhibition above about 22%;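 also: 0% = plate median of test compound wells and 100% = cytotoxic reference compound wells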
# Platelet DG rel: modulates dense granule release in human platelets; human platelet-rich plasma, SFLLRN dense granule ATP release, luminescence; inhibition, %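 (compounds screened at 7.5 µM in platelet-rich plasma)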; actives 0.22% (n = 300,000); AID 1663;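 active = mean replicate score, as percent of positive control, at or above 50; inconclusive = mean below 50 but at least one replicate at or above 50; inactive = mean and every replicate below 50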
# Starred values were filed as active, the others as inactive; ? = inconclusive; . = not tested or not shown.
SMILES,HSF1 activator,HSP90 inh,aSyn UTR inh,KLF5 inhibitor,GSK3A inh,HSF1 inh,GSK3B inh,IEC-6 cytotox,Platelet DG rel
CC(C)=CCCC(C)CN1CCC(N2CCC(C(=O)NC(C)C)CC2)CC1 (centres undefined),-19,4,-22,-17,-4,-4,-5,4,-1
CCNC(=O)C1CCCN1S(=O)(=O)c1ccc(C)cc1 (centres undefined),8,-3,21,-2,1,-4,2,1,-11
C=CCN1CCN(C(=O)c2ccc3c(c2)OCO3)CC1,4,-3,12,-19,-1,-5,3,-1,-4
Cc1c(C(=O)Nc2cccc3cccnc23)oc2ccccc12,.,-1,-118,5,3,.,2,8,1
O=C(O)c1cccc(NS(=O)(=O)c2cccc3cccnc23)c1,-6,5,-21,-12,-4,-4,-3,4,-6
C=CCn1c(SCC(=O)Nc2ccccc2F)nnc1C(C)NC(=O)c1ccccc1F (centres undefined),-3,-3,-12,-11,1,0,2,-1,8
CSc1ccc(C2Nc3ccccc3-c3cc(C)nn32)cc1 (centres undefined),15,-2,-101,-11,-5,-1,1,2,-1
O=C(NC1(C(F)(F)F)C(=O)Nc2c1c(=O)[nH]c(=O)n2-c1ccc(F)cc1)c1cccnc1 (centres undefined),-12,-3,-36,-23,-1,-6,1,-7,-3
CCOc1cc(C)c(Cl)cc1S(=O)(=O)NCc1ccc2c(c1)OCO2,6,7,4,-7,1,2,1,6,6
Nc1c(-c2ccccc2)cnn1C1CCS(=O)(=O)C1 (centres undefined),-10,1,-2,-16,0,5,4,1,-13
CCOC(=O)C1CCN(C(=O)c2ccc3c(c2)NC(=O)/C(=C/c2ccccc2)S3)CC1,2,0,-8,-19,-1,-3,3,-6,-4
Cc1c(/C=N/NC(=O)CNc2ccccc2)c2ccccn2c1C(=O)c1ccccc1,7,4,-1,-5,.,1,-1,12,-15
Cc1cc2c3c(ccc(C)c3n1)N=CN2c1ccccc1,-6,-2,?,-6,2,-5,2,8,1
COc1ccc(OC(=O)c2cccnc2)cc1,-2,-1,-18,-30,-5,-2,4,-1,0
Cc1ccc(OCc2nnc(SCC(=O)Nc3ccc4c(c3)OCO4)n2C)cc1,7,3,12,-20,-1,6,1,3,3
O=[N+]([O-])c1ccc2nc(-c3cccnc3)[nH]c2c1,20,-1,-55,-58,8,5,1,2,0
O=C(C1CCCN(CCCc2ccccc2)C1)N1CCCCC1 (centres undefined),-9,2,-6,-22,0,9,2,-6,-4
CCC(CC)NC(=O)/C=C/c1ccccc1Cl,8,-4,-100,-62,0,17,-5,-4,11
COc1cc(OC)cc(C(=O)N2CCC(n3c(C)nc4cc(F)ccc43)CC2)c1,31,5,8,-31,1,10,-1,-3,-4
COc1ccc2cc(/C=N/O)c(Cl)nc2c1,28,2,-53,-33,10,2,-2,1,5

# Given bar-delimited: entries from further up.
mol | HSF1 activator | HSP90 inh | aSyn UTR inh | KLF5 inhibitor | GSK3A inh | HSF1 inh | GSK3B inh | IEC-6 cytotox | Platelet DG rel
CCC(CC)NC(=O)/C=C/c1ccccc1Cl | 8 | -4 | -100 | -62 | 0 | 17 | -5 | -4 | 11
COc1cc(OC)cc(C(=O)N2CCC(n3c(C)nc4cc(F)ccc43)CC2)c1 | 31 | 5 | 8 | -31 | 1 | 10 | -1 | -3 | -4

# Next entries follow.
SMILES,HSF1 activator,HSP90 inh,aSyn UTR inh,KLF5 inhibitor,GSK3A inh,HSF1 inh,GSK3B inh,IEC-6 cytotox,Platelet DG rel
CN(C)C=NC(=O)c1ccc(N2CCN(c3ncc(C(F)(F)F)cc3Cl)CC2)cc1,34,0,-2,-17,-1,12,-1,-3,-1
CCOC(=O)/C(=C/C=C1\Sc2ccccc2N1CC)C(C)=O,-5,1,0,-19,13,1,-1,-6,6
O=S(=O)(NCc1ccc2c(c1)OCO2)c1ccccc1F,7,-2,-10,6,2,-3,2,-6,-5
O=c1[nH]cnc2ncc(-c3ccc(O)cc3)nc12,30,.,-4,.,12,5,-5,.,-3
COc1ccc(/C=C/c2nc(N)nc(-c3ccccc3O)n2)cc1,13,-2,-116,-12,0,-3,2,-3,1
O=C(/C=C/c1c(Cl)cccc1Cl)NCc1ccco1,23,0,-45,-20,-4,16,-1,12,-5
O=C(O)c1cc([N+](=O)[O-])ccc1Nc1ccccc1,-5,0,26,-37,-6,5,11,0,-13
NC1=NC(=O)S/C1=C\c1ccc(O)cc1,-2,-2,14,-13,2,6,-3,2,6
Cc1cccc(Nc2nc(N)c([N+](=O)[O-])c(N3CCN(C)CC3)n2)c1,3,2,9,-21,17,0,-6,6,15
COC(=O)[C@H](CC(C)C)NS(=O)(=O)N(Cc1ccccc1)[C@@H](CC(C)C)C(=O)OC,.,.,.,.,-3,.,.,.,.
CCc1cc(-c2[nH]ncc2-c2ccc(OC)cc2)c(O)cc1O,-32,1,-10,-4,6,-34,-1,11,4
COc1ccc(CC(=O)c2ccccc2C(=O)O)cc1,1,-2,-3,3,-3,7,-23,2,6
CCOC(=O)C1CCN(S(=O)(=O)c2cnc[nH]2)CC1,-3,-1,10,2,-1,-2,2,-5,-2
Cc1nnc(SCC(=O)Nc2ccc3c4c(cccc24)CC3)n1C,-1,5,13,-1,14,-1,1,4,-21
CSc1ccc(S(=O)(=O)NCCSc2ccccn2)cc1,1,-1,8,-5,7,-1,2,-2,-2
CC(=O)N/C(=C\c1ccccc1)C(=O)OC(C)C(=O)N(C)c1ccccc1 (centres undefined),2,.,-18,.,-1,1,1,.,-2
Cc1ccc2[nH]c(=O)c(-c3noc(C(C)C)n3)cc2c1,23,-1,0,-31,-1,2,-1,2,21
O=C(c1ccccc1)c1ccc2nc[nH]c2c1,-3,4,-61,-32,7,1,2,1,7
O=C1OC[C@H](Cc2ccc3c(c2)OCO3)/C1=C\c1ccc2c(c1)OCO2,14,.,-7,.,19,10,-7,.,-1
Cc1cccc2cc(C#N)c(N3CCCC3)nc12,29,3,2,-21,0,3,2,-3,2
Cn1c(C(=O)NCCN2CCc3ccccc3C2)cc2c(=O)[nH]c3ccccc3c21,12,0,5,-29,11,-7,-4,6,6
c1ccc2c(c1)nc(NC1CCCCC1)c1nncn12,7,-2,43,23,-1,-8,1,11,-22
O=C(Nc1nc2ccccc2s1)C1CC(=O)N(c2ccc(F)cc2)C1 (centres undefined),4,-1,-9,-6,0,-5,2,-4,-2
CC1(OC(=O)CCc2ccccc2)C(=O)C=C2C=C3CCCN3C=C2C1=O (centres undefined),-12,.,6,.,-3,-4,-1,.,0
Cc1c(C2CC(=O)N(c3ccccc3)C2=O)[nH]n(-c2ccccc2)c1=O (centres undefined),-44,1,3,-21,-2,-25,1,-4,2
CCOc1ccc(OCC)c(NC(=O)C2CCN(S(=O)(=O)c3cnc[nH]3)CC2)c1,-23,1,14,-20,-2,-4,.,-3,.
Cc1noc(C)c1CSc1nc2ccccc2c(=O)n1-c1ccccc1,15,-7,1,7,-2,23,2,30*,9
CC(c1cccnc1)N(CCN(C)C)C(=O)Nc1ccc(Cl)c(Cl)c1 (centres undefined),21,-2,-16,-7,-2,-1,-2,1,8
Cc1sc2ncn(CC(=O)NCCCC(=O)N3CCN(c4ncccn4)CC3)c(=O)c2c1C,-11,2,14,10,0,-5,-23,-2,11
O=C(/C=C/c1ccc(S(=O)(=O)NCc2ccco2)cc1)NCc1ccccc1Cl,16,1,-72,-8,0,4,-6,-2,-8
CC(C)NC(=O)C1CCN(C2CCN(CC3CC=CCC3)CC2)CC1 (centres undefined),5,3,-6,-21,1,0,6,-2,1
O=C(NCc1ccccc1)c1ccc(COCC(F)(F)F)o1,4,-1,-7,-6,1,-1,1,2,12
Cc1ccc(O)c(C2=NCCNC(C(F)(F)C(F)F)=C2)c1,8,10,18,1,.,-2,-2,3,-1
Cc1ccc(S(=O)(=O)Nc2cnn(-c3ccccc3)c(=O)c2Cl)cc1,-13,-1,7,-15,-5,-3,4,-3,10
O=C(Nc1ccc2nsnc2c1)c1cccs1,4,2,-41,-42,7,-1,-1,-3,-2
CCNC(=S)Nc1ccc2cn[nH]c2c1,-32,-1,-22,-15,20,-18,-31,-4,28
CN(C)c1nc(Nn2cnnc2)nc(N(C)C)n1,6,4,6,-27,0,-3,0,-1,-3
Cc1nc2cc(F)ccc2n1C1CCN(C(=O)c2c(F)cccc2F)CC1,3,-4,12,-16,4,0,0,-4,13
COc1ccc(OCC(=O)OCCN(C)C)cc1,3,-4,-6,-21,-1,-3,-3,0,-3
COc1ccc2nc(SCc3nc(N)nc(Nc4ccccc4)n3)[nH]c2c1,0,0,8,-28,.,-5,-19,4,6
Cc1ccc(-n2c(=O)[nH]c3c(C(N)=O)nc(CC(C)C)nc32)cc1,8,4,24,-20,1,0,0,-2,-2
CCOC(=O)c1cccc(NC(=O)N2CCOCC2)c1,7,-2,18,2,-3,5,1,-1,1
CN1CCN(C(=O)c2ccc3c(c2)NC(=O)/C(=C/c2ccccc2)S3)CC1,-13,1,-88,8,12,-8,-7,9,-1
CCC(NS(=O)(=O)c1ccc2c(c1)NC(=O)C(C)C(=O)N2)c1cccs1 (centres undefined),-8,-5,1,-17,0,-2,2,1,-4
CCOC(=O)/C(=N/O)C1=NC(C)(C)Cc2cc(C)c(C)cc21,-7,-2,0,-35,0,-1,0,-5,-10
Cc1ccc2nc(NC(=O)CSc3nc(=O)n(CCCN(C)C)c4c3CCC4)sc2c1,2,.,-24,.,0,1,3,.,19
Cc1cccc2cc(C#N)c(N3CCN(C)CC3)nc12,-6,0,12,-27,1,-2,-6,-2,-1
COc1cccc(C2=NOC(C(=O)NCc3ccc(F)cc3)C2)c1 (centres undefined),-12,-3,-11,-43,-3,-16,0,-1,-2
CCOC(=O)c1c(-c2ccccc2)nnn1-c1nc(OC)nc(N2CCOCC2)n1,-17,2,13,-14,-1,-7,0,6,-1
Nc1nc(N)nc(-c2ccccc2O)n1,1,1,-7,-42,9,-3,-2,5,9
C1CN(c2nc3nonc3n3nnnc23)CCO1,-1,2,1,-32,-6,-1,1,0,-7
O=C(O)c1ccccc1Nc1ccnc(Cl)n1,-6,-1,1,-11,5,0,1,9,2
CCn1c(C)nc2cc(C(=O)N/N=C(\C)c3ccc(N4CCOCC4)cc3)ccc21,-1,1,-4,-22,0,0,2,8,5

# One compound at a time (already shown). Order of values: HSF1 activator	HSP90 inh	aSyn UTR inh	KLF5 inhibitor	GSK3A inh	HSF1 inh	GSK3B inh	IEC-6 cytotox	Platelet DG rel
# Cc1cccc2cc(C#N)c(N3CCN(C)CC3)nc12 across the screens: -6	0	12	-27	1	-2	-6	-2	-1
# CCOC(=O)c1cccc(NC(=O)N2CCOCC2)c1 across the screens: 7	-2	18	2	-3	5	1	-1	1

# Given with bars between the fields: two of the compounds above
molecule | HSF1 activator | HSP90 inh | aSyn UTR inh | KLF5 inhibitor | GSK3A inh | HSF1 inh | GSK3B inh | IEC-6 cytotox | Platelet DG rel
COc1cccc(C2=NOC(C(=O)NCc3ccc(F)cc3)C2)c1 (centres undefined) | -12 | -3 | -11 | -43 | -3 | -16 | 0 | -1 | -2
CCOC(=O)c1c(-c2ccccc2)nnn1-c1nc(OC)nc(N2CCOCC2)n1 | -17 | 2 | 13 | -14 | -1 | -7 | 0 | 6 | -1

# Bioassay records from PubChem BioAssay.

# Only part of the results is shown, so the mix of outcomes need not match the whole.
